# NPYLR7 ag: mosquito NPYLR7 agonism. HEK293T NPYLR7/Galpha15, GCaMP6s calcium fluorescence. activation, % at 10 µM. actives 0.15% (n = 270,000). AID 1259423; in the data active = activation above about 40%;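 note: 0% = vehicle and 100% = reference agonist at the receptor; some compounds past the cut are filed as inactive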
# NPYLR7 ag max-min: recorded beside NPYLR7 ag, whose call it bears; activation, %; measured here: Max-Min RFU normalised activation; some inactives read as strong as hits;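 span of the calcium signal over five minutes; 0% = vehicle and 100% = native peptide agonist; compound fluorescence can raise it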
# Starred values were filed as active, the others as inactive; & = joins results of further samples. The list is partial. The share of hits here may be higher or lower than overall.
SMILES,NPYLR7 ag,NPYLR7 ag max-min
CNC(=O)[C@@]1(OCc2cccc(C(F)(F)F)c2)CC(OCc2ccccc2C#N)[C@@H]2OC(C)(C)O[C@@H]2C1 (stereo not given in full),30,33
Cc1nn(C)c(C)c1C1OCCC1CNCc1cn[nH]c1C (stereo not given),11,7
CC(C)c1ccc(NC(=S)N[C@@H]2C=C(C(=O)N[C@H](C)C(N)=O)C[C@@H](OC(=O)Nc3ccccc3)[C@@H]2OC(=O)Nc2ccccc2)c(Br)c1,-8,-16
CCc1cccc(OCCCN2C(=O)NC(C)(C)C2=O)c1,-6,3
COc1ccccc1-c1ccccc1C(=O)NCC(C(C)C)N1CCCC1 (stereo not given),2,1
CC1(C(=O)NCCc2ccccc2)CCN1Cc1ccccc1OC(F)F (stereo not given),9,0
Cc1cc(C)c(N(CC(O)Cn2cc(/C=N\O)c3ccccc32)S(C)(=O)=O)c(C)c1 (stereo not given),9,7
CCc1ccc(S(=O)(=O)N2CCCC2CN2CCCC2)s1 (stereo not given),4,3
CCC(C)NC(=O)N1CCC(Oc2ccc3ncccc3c2)(C(=O)O)CC1 (stereo not given),18,7
COc1ccc(-c2nc3ccccn3c2NC(=O)C(C)C)cc1,-4,4
CCOC(=O)c1ccc2c(c1)nc(SCc1nc(-c3cccc(F)c3)oc1C)n2Cc1ccccn1,5,6
Cc1nc2cc(NC(=O)CN(C)S(=O)(=O)c3ccc(F)cc3)ccc2o1,2,2
O=C(NCc1cccnc1)c1coc(CN(Cc2ccc(F)cc2)Cc2cccc(Oc3ccccc3)c2)n1,-8,-2
CCN(CC)C(=O)c1nn(-c2ccccc2C)c(=O)cc1OC,5,4
CC1(C)CC(N2CCCCC2)=CC(=NC2CC(C)(C)NC(C)(C)C2)C1,10,7
Cc1ccc(Cc2nsc(N3CCN(CCN)CC3)n2)cc1,-6,3
Clc1ccc(C2CCCN(Cc3nc(-c4ccccn4)no3)C2)cc1 (stereo not given),5,2
Cc1cn2c3c(=O)n(CCc4ccccc4)c(=O)n(C)c3nc2n1C1CCCCC1,0,7
CCN(CC)CCN(C)C1CCC(c2ccccc2)CC1 (stereo not given),-2,40
O=C(CNc1cccc(S(=O)(=O)N2CCCC2)c1)N1CCNC1=O,-2,-4
CCCCNC(=S)N(C)c1c(N)n(CCCC)c(=O)[nH]c1=O,6,13
O=S(=O)(Cc1ccc(Cl)cc1)c1nc2ccccc2n1Cc1ccc(Cl)cc1,3,-2
CN(Cc1cccnc1)C(=O)C1CCC(=O)N(Cc2cccc(C(F)(F)F)c2)C1 (stereo not given),1,-5
CN(C)c1ccc(N2C(=O)CSC2c2cccc(NC(=O)c3ccc(C(F)(F)F)cc3)c2)cc1 (stereo not given),8,10
COCCCN(CC(=O)N1CCc2sccc2C1c1ccccc1C)S(C)(=O)=O (stereo not given),6,6
COc1ccc(NCc2nc(CC(=O)O)n[nH]2)cc1,-15,-22
C=C(C)Cn1c(N2CCC(C)CC2)nc2c1c(=O)[nH]c(=O)n2C,4,2
Cc1cc(C)n(CC(=O)NCC(C)(C)c2ccccc2)n1,5,4
CC(=O)Nc1ccc(-c2nc3ccccc3o2)cc1,2,8
CN1CCC(Oc2ccccc2NC(=O)c2ccccc2C2CCNC2)CC1 (stereo not given),3,8
C=CCn1c(SCC(=O)CC(=O)OCC)nc2sc(C)cc2c1=O,-6,-9
CCc1ccccc1NC(=O)CC1S/C(=N/N=C(C)\C=C\c2ccc(OC)cc2)NC1=O (stereo not given),5,4
COCc1nc(C)cc(N2CCN(C(=O)CCC(C)C)CC2)n1,6,6
CN(Cc1c(F)cccc1Cl)C(=O)NCc1ccc(F)cc1,8,5
Cc1cc(O)c(CN(C)CC(=O)N(C)C2CCCCC2)cc1C,1,9
CC1C(=O)N(c2ccccc2Cl)CCN1C(=O)Cc1ccccc1 (stereo not given),-10,-7
Cc1ccccc1C(=O)N1C(C(=O)NCc2cccnc2)COC12CCN(C(=O)c1ccccc1Cl)CC2 (stereo not given),0,8
O=C(NC1CCN(c2ccccc2C(=O)N2CCN(c3ccccc3Cl)CC2)CC1)C1CCCC1,1,4
Cn1cc(/C=C/C(=O)NCc2ccc(N3CCCC3)nc2)c(=O)n(C)c1=O,2,-5
CC(=O)N[C@@H](C)C(=O)NCc1cccnc1Oc1ccc(F)c(F)c1,0,0
O=C(Nc1cccc(C(F)(F)F)c1)C(NCCN1CCOCC1)c1ccccc1 (stereo not given),6,3
O=C(NCc1ccc2c(c1)OCO2)c1nn(-c2ccccc2)c(=O)n(Cc2ccc(C(F)(F)F)cc2)c1=O,-6,-1
C[C@H](NC(=O)Nc1c(F)cc(Br)cc1Br)C(=O)N1CCC(C(=O)N2CCCCC2)CC1,13,15
COc1cc(C=NNC(=O)COc2c(C)cc(C)cc2C)cc(OC)c1OC,-2,-12
O=C(NCc1cccnc1Oc1ccc(F)cc1F)c1ccc[nH]1,0,0
CCc1nc(C)c(C(=O)NC2CC(=O)N(Cc3cccc(F)c3)C2)o1 (stereo not given),13,4
CCC(C)(C)NC(=O)c1ccc(NC(C)C)nc1,-11,-19
COC(=O)C(NC(=O)CN1CCCNC1=O)c1ccccc1F (stereo not given),12,7

# Pulled by structure from the list above:
SMILES,NPYLR7 ag,NPYLR7 ag max-min
Cc1ccccc1C(=O)N1C(C(=O)NCc2cccnc2)COC12CCN(C(=O)c1ccccc1Cl)CC2 (stereo not given),0,8
O=C(NC1CCN(c2ccccc2C(=O)N2CCN(c3ccccc3Cl)CC2)CC1)C1CCCC1,1,4
CCc1nc(C)c(C(=O)NC2CC(=O)N(Cc3cccc(F)c3)C2)o1 (stereo not given),13,4
COc1cc(C=NNC(=O)COc2c(C)cc(C)cc2C)cc(OC)c1OC,-2,-12

# The listing continues:
SMILES,NPYLR7 ag,NPYLR7 ag max-min
Cc1sc2nc(C(C)Sc3nncs3)[nH]c(=O)c2c1C (stereo not given),5,9
COc1ccc(C(C2Sc3nc(C)nn3C2=O)N2CCN(CCO)CC2)cc1OC (stereo not given),12,7
C=CCOCC(O)CN(Cc1cccc(OC)c1)CC1CC(c2ccccc2)=NO1 (stereo not given),-1,3
S=C(NN=C1CCc2ccccc21)NC1CCCCC1,9,6
CC1C(=O)NCCN1C(=O)NCc1ccc(Oc2ccccc2)nc1 (stereo not given),3,-23
Cc1ccc2c(Cl)cc(Cl)c(OCc3cc(C)on3)c2n1,3,9
C=C(C)CSc1nnc(NC(=O)c2ccc(Cl)cc2Cl)s1,-3,5
CCCCN(Cc1sccc1C)C(=O)C1CCC(O)CC1 (stereo not given),-1,6
O=C(CN1CCN(Cc2ccc(Br)s2)CC1)NCc1ccccc1,4,1
Cc1ccccc1NC(=O)C(C)N1CC2C3CCC(C3)C21 (stereo not given),5&4,1&3
COc1ccccc1N1CCN(c2nc(-c3cccs3)nc3ccccc23)CC1,3,15
Cc1cc(C)c(CN2NS(=O)(=O)c3ccccc3C2=O)c(C)c1,1,20
O=C(OCc1cccc(COC(=O)c2ccc(Br)o2)c1)c1ccc(Br)o1,-2,-6
COc1cccc2c(C)cc(SC(C)C(=O)N3CCOCC3)nc12 (stereo not given),-10,-17
Cn1cccc1CN(CC(O)COCc1ccco1)C1CC1 (stereo not given),4,18
COc1ccc(-n2nnc3c(=O)n(Cc4ccc(F)cc4)cnc32)cc1,5,4
O=C(c1cc(-c2ccccc2Cl)nc2ccccc12)N1CCOCC1,-6,-12
CCOC(=O)c1c(NC(=O)c2ccc(OC(F)F)cc2)sc2c1CCC2,1,-2
COc1ccc(CNC(=O)Cn2nc3c(c2NC(=O)c2ccccc2C)CSC3)cc1,-7,-5
Cc1ccc(C(=O)ON=C(N)Cc2ccc(Cl)c(Cl)c2)cc1C,-13,-21
CCOc1ncccc1CN1CCC(C(=O)Nc2ccc(-c3ccccc3)cc2)CC1,1,-4
Cc1nc(-c2cc(C(=O)N3CCC(NC(=O)C(F)(F)F)CC3)no2)cs1,5,7
S=c1[nH]nc(-c2snnc2-c2ccccc2)n1Cc1ccc(Cl)cc1,13,4
CCOC(=O)C1(Cc2ccccc2C(F)(F)F)CCN(C2CCN(C(C)=O)CC2)CC1,-8,-15
CCOC(=O)c1c(O)c2ccccc2[nH]c1=O,4,5
Cc1ccc(C)c(N2C(=O)CSC2c2ccccc2NC(=O)c2ccccc2Cl)c1 (stereo not given),-6,-1
COc1ccc(-c2nc(-c3cccc(OC)c3)nc3ccc4ccccc4c23)cc1,4,6
NC(Cc1ccc(C(F)(F)F)cc1)c1csc(Nc2cc(NCc3ccco3)ncn2)n1 (stereo not given),-5,-12
CCOC(=O)c1sc(NC(=O)C2CCCN(C(=O)N3CCCC3)C2)nc1C (stereo not given),9,0
CC(C)CCN1C(=O)N(Cc2cccnc2)C(=O)C12CCN(Cc1ccc3c(c1)OCCO3)CC2,-26,-22
COc1ccc(N2CCN(Cc3cc(=O)c(OC)cn3CC(=O)NCCc3ccccc3)CC2)cc1,1,0
C#CCOCC(O)CN(Cc1ccc(F)cc1)Cc1ccc(C)s1 (stereo not given),14,14
CCn1nc(C)c(C(=O)N2CCCC(c3nn(C)c(=O)n3CC)C2)c1C (stereo not given),5,5
O=C(c1ccc(F)c(Cl)c1)N1CCN(c2nccc(-c3ccc(Oc4ccccc4)cc3)n2)CC1,12,7
CC1(OC(=O)c2cccc(Cl)c2)CCCSC1 (stereo not given),2,2
COc1ccccc1-c1cc2nc(C)cc(=O)n2[nH]1,0,21
O=C(NCc1ccc(F)cc1)c1nn(-c2ccccc2)c(=O)n(Cc2cccc(C(F)(F)F)c2)c1=O,8,12
CC(=O)c1ccc(N2CCN(c3nc(-c4cc(C)cs4)ccc3C(=O)NC3CCS(=O)(=O)C3)CC2)cc1 (stereo not given),-2,-4
N=C(N)SCCN,-7&1,-14&-10
CN(C)Cc1nnc(SCC(=O)O)n1-c1ccccc1C(F)(F)F,3,-2
COc1ccc(-n2nc(-n3cnc4ccccc43)c(C)c(C#N)c2=O)cc1,2,3
Cc1ccc(Cl)c(C(=O)N(C)Cc2cnc3ccccc3c2)c1,-5,-9
CC1(C)CC(=NO)CC(C)(C)N1O,0,4
O=C(NCCN1CCOCC1)c1cc2nc(-c3ccc(F)cc3)cc(C(F)(F)F)n2n1,-11,-15
CCCS(=O)(=O)N1CCN(CCCOC(c2ccc(Cl)cc2)c2ccc(Cl)cc2)CC1,23,19
CN(C)c1ccc(C(SCCC(=O)O)SCCC(=O)O)cc1,3,3
O=C1NC2(CCSC2)C(=O)N1CC(O)c1ccc(OC(F)(F)F)cc1 (stereo not given),2,2
C=CCN(Cc1ccc(C(N)=O)cc1)Cc1cccs1,-5,-8
O=C(NCC1CCCO1)c1cc2n(n1)CCN(Cc1cccc(C(F)(F)F)c1)C2=O (stereo not given),14,1
O=C(Nc1cccc(OCc2cscn2)c1)NC1CCC(O)CC1 (stereo not given),-9,-13
CCSc1nn(CC(=O)Nc2c(C)cccc2C)c(N)c1S(=O)(=O)c1ccc(OC)cc1,6,-3
CN1CCC2(CC1)CN(C(=O)c1ccc3nc[nH]c3c1)CCCN2C,2,2
CC1CN(C(=O)c2cccc(COc3ccc(Br)cc3)c2)CC(C)O1 (stereo not given),1,4
CCCCCCCCCCCC(=O)Nc1ccc(C2SCC(=O)N2c2ccc(OCC)cc2)cc1 (stereo not given),3,10
COc1ncc(-c2nccn2CCCN2CCCC2=O)cn1,0,-1
COc1ccc2sc(C(=O)NCC3CCCO3)c(Cl)c2c1 (stereo not given),30,29
Cc1nn(C2CCS(=O)(=O)C2)c2nc(-c3cccs3)cc(C(=O)NC3CCCCC3C)c12 (stereo not given),2,5
O=C(NCCc1ccc(F)cc1)C1(N2CCOCC2)CCCC1,-6,-7
CCNC(=O)CNC(=O)NCc1ccccc1Oc1ccccc1F,11,8
N#CCCC(C#N)Cn1c(SC(F)F)nc2ccccc21 (stereo not given),-1,-2

# (listing goes on)
SMILES,NPYLR7 ag,NPYLR7 ag max-min
COc1cc(CCC(=O)Nc2cc(F)c(F)cc2NC(C)=O)cc(OC)c1,-5,-6
CCCc1ncc(CN2CCC(C(=O)Nc3cccc(-c4cscn4)c3)CC2)cn1,6,7
NCCc1nc(N2CCC(Cc3noc(C4CC4)n3)CC2)c2ccccc2n1,15,6
CCOc1nc(-c2ccc(C)cc2)n(-c2ccc(NC(=O)Nc3cccc(Cl)c3)cc2)n1,5,12
COc1ccc(-c2ccc3nnc(Cl)nc3c2)cc1,22,12
CCCCN(C)C(=O)c1ccccc1NS(=O)(=O)c1ccc(OC)cc1,2,2
COc1ccc(OC)c2sc(N(CCCN(C)C)C(=O)c3cc(C)nn3C)nc12,1,1
COc1ccc(S(=O)(=O)NCC2CCCN(Cc3cc(C(C)C)n[nH]3)C2)cc1 (stereo not given),-3,-3
C=CCN(Cc1cccc(OC)c1)C(=O)c1c(C)nc2sccn12,0,0
O=C(c1c[nH]c2ccccc12)N1CCN(Cc2nnnn2-c2ccc(Cl)cc2)CC1,-2,-2
Cc1ccc(C)c(-n2nnnc2SC2CCCCNC2=O)c1 (stereo not given),-1,-2

# By substructure, those above with a thiophene ring, fused or not (13)
SMILES,NPYLR7 ag,NPYLR7 ag max-min
CCc1ccc(S(=O)(=O)N2CCCC2CN2CCCC2)s1 (stereo not given),4,3
COCCCN(CC(=O)N1CCc2sccc2C1c1ccccc1C)S(C)(=O)=O (stereo not given),6,6
C=CCn1c(SCC(=O)CC(=O)OCC)nc2sc(C)cc2c1=O,-6,-9
Cc1sc2nc(C(C)Sc3nncs3)[nH]c(=O)c2c1C (stereo not given),5,9
CCCCN(Cc1sccc1C)C(=O)C1CCC(O)CC1 (stereo not given),-1,6
O=C(CN1CCN(Cc2ccc(Br)s2)CC1)NCc1ccccc1,4,1
COc1ccccc1N1CCN(c2nc(-c3cccs3)nc3ccccc23)CC1,3,15
CCOC(=O)c1c(NC(=O)c2ccc(OC(F)F)cc2)sc2c1CCC2,1,-2
C#CCOCC(O)CN(Cc1ccc(F)cc1)Cc1ccc(C)s1 (stereo not given),14,14
CC(=O)c1ccc(N2CCN(c3nc(-c4cc(C)cs4)ccc3C(=O)NC3CCS(=O)(=O)C3)CC2)cc1 (stereo not given),-2,-4
C=CCN(Cc1ccc(C(N)=O)cc1)Cc1cccs1,-5,-8
COc1ccc2sc(C(=O)NCC3CCCO3)c(Cl)c2c1 (stereo not given),30,29
Cc1nn(C2CCS(=O)(=O)C2)c2nc(-c3cccs3)cc(C(=O)NC3CCCCC3C)c12 (stereo not given),2,5

# Screening results: PubChem BioAssay, Fisher Drug Discovery Resource Center
